TRPV1 PAM – potentiators of human vanilloid receptor 1 (TRPV1) | Q8NER1 | TRPV1-expressing cells, Fluo-8 calcium influx, capsaicin EC20 potentiation; host cell line not named in the record; control for the full effect not named in the record | potentiation, % at 8.33 µM | actives 0.02% (n = 320,000); active means potentiation above 80%; inconclusive means 30% to 80%; inactive means below 30%; note: 0% is about no effect
Target sequence (Q8NER1 whole entry, looked up): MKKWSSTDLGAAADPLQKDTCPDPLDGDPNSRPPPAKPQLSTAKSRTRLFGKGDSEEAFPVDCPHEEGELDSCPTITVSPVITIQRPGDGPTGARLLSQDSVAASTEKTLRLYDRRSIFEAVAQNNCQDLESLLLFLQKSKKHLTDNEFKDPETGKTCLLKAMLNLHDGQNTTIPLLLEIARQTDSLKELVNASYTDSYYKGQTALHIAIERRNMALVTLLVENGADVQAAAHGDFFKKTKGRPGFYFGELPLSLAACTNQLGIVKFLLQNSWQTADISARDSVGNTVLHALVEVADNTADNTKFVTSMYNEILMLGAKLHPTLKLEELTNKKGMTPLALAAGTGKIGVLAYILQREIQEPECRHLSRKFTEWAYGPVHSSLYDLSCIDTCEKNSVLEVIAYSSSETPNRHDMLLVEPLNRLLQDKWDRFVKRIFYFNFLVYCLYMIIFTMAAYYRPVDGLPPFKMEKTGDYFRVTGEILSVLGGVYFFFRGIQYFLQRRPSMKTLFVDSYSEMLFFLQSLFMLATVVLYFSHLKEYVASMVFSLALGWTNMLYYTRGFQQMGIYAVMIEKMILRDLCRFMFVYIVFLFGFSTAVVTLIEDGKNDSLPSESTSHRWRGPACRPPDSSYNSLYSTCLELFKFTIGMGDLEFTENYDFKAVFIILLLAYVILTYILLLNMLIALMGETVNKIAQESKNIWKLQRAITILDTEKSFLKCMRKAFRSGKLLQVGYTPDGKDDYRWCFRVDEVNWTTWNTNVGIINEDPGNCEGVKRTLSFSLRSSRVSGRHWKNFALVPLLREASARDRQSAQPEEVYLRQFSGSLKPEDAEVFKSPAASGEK
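Fluo-8 calcium influx in TRPV1-expressing cells, kinetic read (ex 480/em 520 nm). Compound added and read 3 min for agonist activity, followed by capsaicin at EC20 final and 2 min further read for enhancement.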
PINK1 modulator – changes PINK1 expression; PINK1 immunofluorescence, high-content cytometry, 24 h; Potency, µM (titrated, usually from 76.6 µM), for inactives: top-dose activation (PINK1 increase), usual class: activators; actives 0.2% (n = 410,000); AID 624263; active = well fitted activation curve with a large enough effect; inconclusive = small, poorly fitted or top-dose-only effect; inactive = flat fitted curve, though single readings scatter; cell line not stated here;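 note: potency is the fitted concentration of half-maximal effect; % of control where 0% means no effect; nearly all actives have a fitted effect of over 65% in size; a mitochondrial uncoupler was the plate control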
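Decision-based qHTS: stable cells, 24 h exposure to five compound concentrations, CCCP as control. Fixed cells stained for PINK1 plus nuclear, mitochondrial and cell markers, cytometer read.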
D2 ag – agonists of human D2 dopamine receptor (beta-arrestin); P14416; DiscoveRx PathHunter D2 beta-arrestin, luminescence, 90 min; 100% = 57 uM dopamine signal; activation, % (concentration not given with the values); actives 0.084% (n = 360,000); AID 624465; in the data active = activation above about 40%; inconclusive = about 15% to 40%; inactive = below about 15%; note: compound concentration not given in the record; the text of the record calls up to 30% inactive
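Agonist mode: compounds alone added to overnight-plated D2 PathHunter cells for 90 min at 37 C, with 57 uM final dopamine (EC100) defining full response. Beta-arrestin recruitment detected by chemiluminescent reagent, read after 1 h at ambient temperature.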
Sfp PPTase inh – Sfp phosphopantetheinyl transferase inhibition; actives 3.5% (n = 310,000); Potency, µM, for inactives: max response, negative = inhibition, most hits filed as inhibitors; Biochemical Sfp PPTase activity, qHTS; active = well fitted inhibition curve with a large enough effect; inconclusive = small, poorly fitted or top-dose-only effect, or another doubt; inactive = no such curve, though single readings can be large or run the other way;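 note: the enzyme is Sfp with the accession as filed and its product quenches rhodamine fluorescence; potency is the fitted concentration of half-maximal effect; 0% = enzyme reaction without inhibitor and -100% = no enzyme wells; top concentration of the series not given in the record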
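Fluorescence-quenching assay with 15 nM Sfp, 5 uM rhodamine-CoA and 12.5 uM BHQ-2-labelled ybbR peptide in pH 7.6 Hepes/MgCl2 buffer. Enzyme was pre-incubated with compound for 15 min at room temperature. Rate was taken from the 30-min fluorescence change (525/598 nm).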
D2 potentiator – potentiates the human D2 dopamine receptor allosterically; P14416; DiscoveRx D2 beta-arrestin cells, luminescence, 90 min; 100% = 57 uM dopamine signal; potentiation, % (test concentration not listed); actives 0.23% (n = 360,000); AID 624464; active = potentiation of 50% or more; inconclusive = 30% to 50%; inactive = 30% or less;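 note: compound concentration not given in the record; tested on top of an EC20 dose of dopamine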
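PathHunter D2 cells, attached overnight at 37 deg C, received compound in DMSO plus dopamine at EC20 (50 nM final) for 90 min at 37 deg C. Beta-arrestin recruitment was read as luminescence after 1 h with detection reagent at ambient temperature.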
CtBP-E1A blk – inhibitors of CtBP/E1A interaction | AlphaScreen GST-E1A/His-CtBP binding, 1536-well; hits give low values; control for the full effect not named in the record | activity change, % (no concentration beside the values) | actives 0.49% (n = 340,000) | AID 651724; in the data active means activity change below about -65%; inconclusive means about -30% to -65%; inactive means above about -30%; note: % is set by controls: 0 for no effect and ±100 for the full control effect; compound concentration not given in the record
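Steps: dispense buffer (Tris pH 8.0, NaCl 300 mM, TCEP 1 mM, BSA, Tween 20); add 5X protein mix (GST-E1A, His-CtBP, 125 nM each); pin 23 nL compound; 2 h at 37 °C, dark; add 5X beads (50 ug/mL); 1 h; read.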
Six1-Eya2 inh – Six1/Eya2 interaction inhibition; Q15475+O00167; AlphaScreen GST-Six1/His-Eya2 binding, biochemical; hits give low values; control for the full effect not named in the record; activity change, % (test concentration not listed); actives 0.56% (n = 360,000); AID 651725; in the data active = activity change below about -65%; inconclusive = about -30% to -65%; inactive = above about -30%; note: % is set by controls: 0 for no effect and ±100 for the full control effect; compound concentration not given in the record
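GST-Six1 + His-Eya2 (5X stock: 250/500 nM); Tris pH 8.0, 300 mM NaCl, 0.05% BSA, 0.02% Tween 20; GSH donor/Ni acceptor beads; 1 h 37 °C dark; AlphaScreen readout.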
The depositor's hits bear a star; ? = inconclusive; / = not tested or not shown; [ ] = another dose, or the depositor's remark. Rows are unselected. About 3.7% of those tested had a hit in this group.

Assay codes – A = TRPV1 PAM; B = PINK1 modulator; C = D2 ag; D = Sfp PPTase inh; E = D2 potentiator; F = CtBP-E1A blk; G = Six1-Eya2 inh
1. COc1ccc(-c2nn(C)c(=O)c3ccccc23)cc1CNC(=O)c1ccco1
  A: -1; B: 5.1%; C: -3.2; D: 6%; E: -15; F: 5; G: 2
2. O=S1(=O)NC(c2ccccc2)CC(CC2CCCCC2)O1 (stereo not given)
  A: 1; B: 11%; C: -0.4; D: 1%; E: -14; F: 6; G: 6
3. CCOC(=O)C1=CCN(S(=O)(=O)c2ccccc2Br)C1c1cccc(F)c1 (stereo not given)
  A: /; B: 0.3%; C: -2.0; D: /; E: 2; F: 8; G: 1
4. CCOC(=O)C(=CNc1cccnc1Oc1ccc(C)c2c1CCC2)C(=O)OCC
  A: 1; B: 13%; C: 0.3; D: -10%; E: -3; F: 1; G: -23
5. CC1CC(NC(=O)CCn2c(=O)oc3ccccc32)CC(C)(C)C1 (stereo not given)
  A: -8; B: 0.4%; C: 3.2; D: 14%; E: -7; F: 3; G: -3
6. COC(=O)c1nn(-c2nc(-c3ccc(OC)c(OC)c3)cc(C(F)(F)F)n2)cc1[N+](=O)[O-]
  A: 8; B: 1.7%; C: -3.9; D: 8%; E: -8; F: /; G: 4
7. FC(F)(F)c1cc(Oc2ccc(Cl)cc2)nc(-c2ccccn2)n1
  A: /; B: -23%[38.3 µM]; C: -3.1; D: 10%; E: -8; F: -3; G: 0
8. CC(=O)n1cc(N(C(=O)CCl)c2ccccc2)c2ccccc21
  A: 6; B: 0.0%; C: -3.7; D: -6%; E: -3; F: 7; G: -4
9. COc1cc(NC(=O)CC(C)S(=O)(=O)c2cc3c(cc2C)NC(=O)CO3)cc(OC)c1OC (stereo not given)
  A: -22; B: -0.1%; C: -1.6; D: 12%; E: -5; F: -9; G: -1
10. O=C(Cn1cnc2c(oc3nc4c(cc32)CCCC4)c1=O)Nc1ccccc1
  A: -15; B: 23%; C: 3.7; D: 1%; E: -3; F: /; G: -2

Profiles as entered above.
Entry for CCOC(=O)C(=CNc1cccnc1Oc1ccc(C)c2c1CCC2)C(=O)OCC → TRPV1 PAM = 1; PINK1 modulator = 13%; D2 ag = 0.3; Sfp PPTase inh = -10%; D2 potentiator = -3; CtBP-E1A blk = 1; Six1-Eya2 inh = -23
Entry for O=S1(=O)NC(c2ccccc2)CC(CC2CCCCC2)O1 (stereo not given) → TRPV1 PAM = 1; PINK1 modulator = 11%; D2 ag = -0.4; Sfp PPTase inh = 1%; D2 potentiator = -14; CtBP-E1A blk = 6; Six1-Eya2 inh = 6

The results go on.
Assay codes – A = TRPV1 PAM; B = PINK1 modulator; C = D2 ag; D = Sfp PPTase inh; E = D2 potentiator; F = CtBP-E1A blk; G = Six1-Eya2 inh
11. CC(C)(C)c1[nH]nc2c1C(c1ccoc1)C(C#N)=C(N)O2 (stereo not given)
  A: 20; B: 2.3%; C: -0.6; D: 7%; E: -22; F: -2; G: -10
12. Cc1cc2cc(CCNC(=O)c3ccc(S(=O)(=O)N4CCCC4)cc3)c(=O)[nH]c2cc1C
  A: 1; B: 2.4%; C: -1.6; D: -12%; E: 8; F: 7; G: -10
13. Cc1ccc(CNC(=O)C2CC3Cn4c(nc5cc(Cl)c(Cl)cc54)C3N2C)o1 (stereo not given)
  A: -2; B: -0.6%; C: -3.0; D: -13%; E: -8; F: -2; G: -5
14. CCCCCCN1C[C@H](n2cc(-c3ccc(F)cc3)nn2)[C@@H](O)C[C@@H]1c1ccc(OC)cc1
  A: /; B: 6.3%; C: -5.0; D: /; E: 1; F: -7; G: 2
15. CC(=O)N(CCc1ccccc1)c1ccc2c(c1)C1CC2CCN1C(=O)OCc1ccccc1 (stereo not given)
  A: /; B: ?; C: -6.1; D: /; E: -2; F: -11; G: -8
16. O=C(COC(=O)c1ccccc1F)NCc1ccc2c(c1)OCO2
  A: /; B: 1.4%; C: -2.9; D: /; E: 8; F: /; G: 4
17. COc1ccc(NC(=O)CCC(=O)OC(C(=O)c2ccccc2)c2ccccc2)cc1 (stereo not given)
  A: -9; B: -0.3%; C: -3.2; D: 32%; E: -4; F: 3; G: -2
18. CN1C(=O)N(C)C2(c3ccccc3)NNC(N)=NC12c1ccccc1 (stereo not given)
  A: -9; B: 4.5%; C: 0.8; D: -1%; E: -5; F: 8; G: 0
19. CCOC(=O)C(C)NC(=O)CCc1nnc2ccc(N3CCCCC3)nn12 (stereo not given)
  A: 14; B: -0.6%; C: 0.3; D: 21%; E: -3; F: 3; G: 7
20. COCCCNc1nc2c(c(=O)n(Cc3cccc(Br)c3)c(=O)n2C)n1C
  A: -10; B: 2.8%; C: 2.5; D: 3%; E: -1; F: -20; G: -19
21. CC(=O)c1cccc(NC(=O)N2CCCC2C(=O)Nc2ccc3c(c2)OCO3)c1 (stereo not given)
  A: 1; B: -1.6%; C: -5.2; D: -7%; E: -8; F: -19; G: -11
22. COc1ccc(C(=O)NC(C)CCn2cccn2)cc1OC1CCN(C(C)C)CC1 (stereo not given)
  A: -1; B: -0.8%; C: -4.1; D: 14%; E: 9; F: 4; G: 4
23. O=C(O)[C@H]1CCC(=O)N1Cc1ccco1
  A: 6; B: -0.6%; C: -3.6; D: -2%; E: 18; F: 5; G: 1
24. O=C(CSc1ccccc1)Nc1ccc2c(c1)OCCO2
  A: -13; B: 1.2%; C: -0.8; D: 10%; E: -6; F: -1; G: -6
25. O=C(O)c1ccc2c(c1)CCCN2
  A: /; B: 1.4%; C: -2.1; D: 6%; E: -3; F: 0; G: -14
26. CCOC(=O)CC(NC(=O)Cc1ccc(F)cc1)c1ccccc1Cl (stereo not given)
  A: -13; B: 0.4%; C: -0.5; D: 0%; E: -12; F: 13; G: 3
27. COc1ccc2cc(C3CC(c4ccco4)=NN3S(C)(=O)=O)c(Cl)nc2c1 (stereo not given)
  A: -2; B: 2.6%; C: -0.1; D: 50µM*; E: 2; F: -6; G: -12
28. N#CCCn1nc(-c2ccccc2)cc1-n1c(C(F)(F)F)nc2ccccc21
  A: -12; B: -0.3%; C: -0.5; D: -9%; E: -1; F: 6; G: 2
29. O=C(CSc1nnc(-c2ccccc2)o1)NC1CC1
  A: 0; B: -0.4%; C: -1.0; D: /; E: 2; F: -8; G: 2
30. O=C(CNS(=O)(=O)c1ccc(Br)s1)NCC1COc2ccccc2O1 (stereo not given)
  A: 2; B: -5.0%[38.3 µM]; C: -1.4; D: 8%; E: -15; F: 9; G: 5
31. COCCNS(=O)(=O)c1ccc(Cl)c(C(=O)NC2CCN(Cc3ccccc3)CC2)c1
  A: 3; B: 2.1%; C: 1.1; D: 9%; E: -14; F: 6; G: 3
32. Cc1cc(=O)oc2c3c(cc(OCC(=O)NC4CC4)c12)OC(C)(C)CC3
  A: -11; B: 1.3%; C: -3.9; D: 6%; E: -25; F: 8; G: 0
33. COc1cccc(C2=NOC(C(=O)NC(C)C)C2)c1 (stereo not given)
  A: -4; B: 0.0%[38.3 µM]; C: 0.2; D: 23%; E: -14; F: 15; G: 2
34. CC(Sc1n[nH]c(N)n1)C(=O)Nc1ccccc1-c1ccccc1 (stereo not given)
  A: 1; B: 2.4%; C: -0.5; D: 7%; E: -8; F: /; G: -7
35. COc1ccc(-c2cc3c(c4c2ccn4C)C2CCC3O2)cc1OC (stereo not given)
  A: /; B: 1.7%; C: 4.4; D: /; E: 10; F: -15; G: -18
36. FC(F)(F)c1nc2nncn2c2c1CCCCC2
  A: 18; B: 0.0%; C: -2.2; D: 2%; E: -10; F: 4; G: -1
37. COc1ccc(NC(=O)c2ccc(S(=O)(=O)N3CCCCC3)cc2)c(OC)c1
  A: 24; B: -1.1%; C: -4.7; D: 9%; E: -8; F: -2; G: -10
38. CCOCC(=O)Nc1ccc(S(=O)(=O)NCC2CCCO2)cc1 (stereo not given)
  A: -11; B: -0.7%; C: 2.6; D: 14%; E: 0; F: 4; G: -2
39. CC(=O)N(CN1C(=O)c2ccccc2C1=O)c1ccccc1
  A: 3; B: 1.0%; C: -0.8; D: 8%; E: -5; F: -1; G: 1
40. O=C(O)c1cscn1
  A: -2; B: -0.4%; C: 2.9; D: -1%; E: 5; F: -2; G: -1
41. C[C@@]12C(=O)N(c3cccc(F)c3)C(=O)N1[C@H](c1ccc(Cl)cc1)[C@@H]1C(=O)N(C3CCCCC3)C(=O)[C@@H]12
  A: -28; B: 0.8%; C: -1.1; D: /; E: -3; F: /; G: 3
42. OC1(c2ccccc2Cl)NN=C2CCCCCN21 (stereo not given)
  A: -5; B: 5.8%; C: 1.2; D: 1%; E: -4; F: 6; G: 3
43. O=C(Nc1cccc(Cl)c1)c1csc([C@H]2C[C@H](O)[C@@H](CO)O2)n1
  A: /; B: 1.0%; C: -3.8; D: /; E: -2; F: 6; G: -1
44. Cc1ccc(S(=O)(=O)/N=c2\scc(C)n2C)cc1
  A: -16; B: 1.0%; C: -0.8; D: /; E: -9; F: -12; G: 13
45. COc1ccc(OC)c2sc(N3CCCCC3)nc12
  A: -35; B: 0.3%; C: -2.7; D: -5%; E: -12; F: -5; G: -4
46. CN(Cc1ccc(F)cc1)C(=O)c1cccc(S(=O)(=O)NCc2ccccc2)c1
  A: 3; B: 3.9%; C: -2.2; D: /; E: 0; F: 1; G: 6
47. O=c1oc(-c2ccccc2)cc(Cl)c1Cl
  A: 3; B: -3.3%; C: -1.8; D: 3%; E: -7; F: -15; G: 0
48. CCOc1ccc(CN2CCNC(=O)C2CC(=O)NCCC2=CCCCC2)cc1 (stereo not given)
  A: -5; B: 0.9%; C: -3.6; D: 7%; E: -4; F: -11; G: 5
49. CCC(=O)Nc1nc2ccccc2n1CCN(C)C
  A: 4; B: -0.1%; C: -1.3; D: -13%; E: -42; F: -15; G: -18
50. Cc1cc(N(C)NC(=S)Nc2ccccc2)nc(C)n1
  A: 2; B: 2.4%; C: 0.2; D: 7%; E: 2; F: 5; G: 1
51. CN(Cc1cccc(F)c1)C(=O)CN1C(=O)NC2(CCc3ccccc32)C1=O (stereo not given)
  A: -4; B: 2.5%; C: -4.1; D: /; E: -7; F: /; G: 4

Screens: PubChem BioAssay, National Center for Advancing Translational Sciences (NCATS)
